Screening results deposited in PubChem BioAssay by Broad Institute.
FGF22 binding: FGF22 (human) thermal shift binding | Q9HCT0 | recombinant FGF22 thermal shift, SYPRO orange fluorescence; percent of sucrose octasulfate shift, DMSO zero | calls only at 9.99 µM | hit rate 1.5% among 340,000;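 active means melting point raised past a set limit in the mean and every replicate; three in four hits are not shown here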
Target sequence (Q9HCT0 whole entry, looked up): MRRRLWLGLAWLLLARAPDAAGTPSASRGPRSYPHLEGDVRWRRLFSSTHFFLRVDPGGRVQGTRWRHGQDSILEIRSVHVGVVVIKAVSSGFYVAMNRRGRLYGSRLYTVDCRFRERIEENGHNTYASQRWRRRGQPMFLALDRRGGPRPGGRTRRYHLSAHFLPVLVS
Calls only; i = inactive.

The opening two compounds as a preview:
FGF22 binding | molecule
i | C[C@@H]1CCCCO[C@@H](CN(C)C(=O)c2ccccc2)[C@H](C)CN([C@H](C)CO)C(=O)c2cc(NS(=O)(=O)c3ccc(F)cc3)ccc2O1
i | Cc1ccc(S(=O)(=O)Nc2ccc3c(c2)C(=O)N([C@H](C)CO)C[C@@H](C)[C@@H](CN(C)C(=O)NC2CCCCC2)OCCCC[C@H](C)O3)cc1

Results, from the start:
FGF22 binding | molecule
i | C[C@@H]1CCCCO[C@@H](CN(C)C(=O)c2ccccc2)[C@H](C)CN([C@H](C)CO)C(=O)c2cc(NS(=O)(=O)c3ccc(F)cc3)ccc2O1
i | Cc1ccc(S(=O)(=O)Nc2ccc3c(c2)C(=O)N([C@H](C)CO)C[C@@H](C)[C@@H](CN(C)C(=O)NC2CCCCC2)OCCCC[C@H](C)O3)cc1
i | O=C(N[C@H](C(=O)N1CCC[C@H]1C(=O)NCc1ccccc1)c1ccccc1)c1ccc(Cl)cc1Cl
i | CN1C(=O)c2cc(NC(=O)c3ccc(Cl)cc3)ccc2OC[C@@H]2O[C@@H](CC(=O)O)CC[C@@H]21
i | CCCn1c(C)c(CC(=O)Nc2ccc(N(C)c3ccccn3)cc2)c2ccccc21
i | COC(=O)C[C@@H]1CC[C@@H]2[C@@H](COc3ccc(NC(=O)Nc4cccc(F)c4)cc3C(=O)N2C)O1
i | C[C@H](O)C#Cc1cnc2c(c1)C(=O)N([C@@H](C)CO)C[C@@H](C)[C@H](CN(C)C(=O)CN1CCOCC1)O2
i | C[C@@H]1CN([C@H](C)CO)C(=O)c2cc(-c3cncnc3)cnc2O[C@H]1CN(C)C(=O)c1ccccc1F

Part of the list above in order of number of heavy atoms, high to low:
FGF22 binding | molecule
i | Cc1ccc(S(=O)(=O)Nc2ccc3c(c2)C(=O)N([C@H](C)CO)C[C@@H](C)[C@@H](CN(C)C(=O)NC2CCCCC2)OCCCC[C@H](C)O3)cc1
i | C[C@@H]1CCCCO[C@@H](CN(C)C(=O)c2ccccc2)[C@H](C)CN([C@H](C)CO)C(=O)c2cc(NS(=O)(=O)c3ccc(F)cc3)ccc2O1
i | C[C@@H]1CN([C@H](C)CO)C(=O)c2cc(-c3cncnc3)cnc2O[C@H]1CN(C)C(=O)c1ccccc1F
i | O=C(N[C@H](C(=O)N1CCC[C@H]1C(=O)NCc1ccccc1)c1ccccc1)c1ccc(Cl)cc1Cl
i | COC(=O)C[C@@H]1CC[C@@H]2[C@@H](COc3ccc(NC(=O)Nc4cccc(F)c4)cc3C(=O)N2C)O1
i | CN1C(=O)c2cc(NC(=O)c3ccc(Cl)cc3)ccc2OC[C@@H]2O[C@@H](CC(=O)O)CC[C@@H]21
i | CCCn1c(C)c(CC(=O)Nc2ccc(N(C)c3ccccn3)cc2)c2ccccc21

(cont.)
FGF22 binding | molecule
i | CNC(=O)C[C@@H]1CC[C@@H]2[C@H](COc3ccc(NS(=O)(=O)c4cccc(F)c4)cc3C(=O)N2C)O1
i | O=C(C[C@@H]1C[C@H]2c3cc(NC(=O)c4ccc5c(c4)OCO5)ccc3O[C@H]2[C@@H](CO)O1)NCc1ccccn1
i | C[C@H](CO)N1C[C@H](C)[C@@H](CN(C)Cc2ccccc2)Oc2ncc(-c3cccc(C#N)c3)cc2C1=O
i | O=C(Nc1ccc(-c2ccccc2)cc1)[C@H]1[C@H](CO)[C@H]2Cn3c(cccc3=O)[C@H]2N1CC1CCCC1
i | COc1ccc(C#Cc2cnc3c(c2)C(=O)N([C@@H](C)CO)C[C@H](C)[C@@H](CN(C)CC2CCCC2)O3)cc1
i | O=C(CC1CC1)N1CC2(C1)[C@@H](c1ccccc1)[C@@H](CO)N2C(=O)c1cccnc1
i | COc1ccc2c3c(n(C)c2c1)[C@@H](CO)N(Cc1ccc2c(c1)OCO2)CC31CCN(C(=O)c2ccc3c(c2)OCO3)CC1
i | Cc1noc(C)c1NC(=O)Nc1ccc2c(c1)C(=O)N([C@H](C)CO)C[C@H](C)[C@@H](CN(C)S(=O)(=O)c1ccc(Cl)cc1)OCCCC[C@H](C)O2
i | C/C=C/c1ccc([C@H]2[C@@H](CO)N3CCCCN(S(=O)(=O)c4cccs4)C[C@@H]23)cc1
i | C/C=C/c1ccc([C@@H]2[C@@H](CO)N(C(C)=O)C23CN(C(=O)c2cnccn2)C3)cc1
i | CCCNC(=O)N1C[C@H](O)COC[C@@H]2O[C@H](CC(=O)N[C@@H]3CCN(Cc4ccccc4)C3)CC[C@H]21
i | COc1cccc(S(=O)(=O)N[C@@H]2C=C[C@H](CC(=O)NCc3ccncc3)O[C@@H]2CO)c1
i | CC(C)NC(=O)Nc1ccc2c(c1)C(=O)N([C@@H](C)CO)C[C@@H](C)[C@@H](CN(C)C(=O)Nc1ccc(C(F)(F)F)cc1)O2
i | COCC(=O)N1CCC2(CC1)CN(C(=O)c1ccccn1)[C@H](CO)c1c2c2ccc(OC)cc2n1C
i | COCc1cn(CC[C@@H]2CC[C@@H](NC(=O)Nc3ccc(Cl)cc3)[C@H](CO)O2)nn1
i | COCC#Cc1ccc([C@H]2[C@H]3CN(C(=O)NC4CCCC4)CCCCN3[C@H]2CO)cc1
i | Cc1cc(Oc2cccnc2)ccc1NC(=O)CCc1c[nH]c2ccccc12
i | COc1cccc(CNC(=O)C[C@@H]2CC[C@H](NC(=O)C3CCC3)[C@@H](CO)O2)c1
i | CC(C)NC(=O)Nc1ccc2c(c1)C(=O)N([C@@H](C)CO)C[C@@H](C)[C@H](CN(C)C(=O)CCC(F)(F)F)OCCCC[C@@H](C)O2
i | CCS(=O)(=O)N1CC2(C1)[C@H](c1ccccc1)[C@H](CO)N2C(=O)C1CC1
i | CCCNC(=O)[C@@H]1[C@@H](CO)[C@@H]2Cn3c(ccc(C4=CCCCC4)c3=O)[C@H]1N2CCC
i | COc1ccc(S(=O)(=O)Nc2ccc3c(c2)C(=O)N([C@H](C)CO)C[C@H](C)[C@H](CN(C)Cc2ccc(Cl)c(Cl)c2)OCCCC[C@H](C)O3)cc1
i | C[C@@H]1CN([C@@H](C)CO)C(=O)c2cc(NC(=O)CCC(F)(F)F)ccc2O[C@@H](C)CCCCO[C@H]1CN(C)S(=O)(=O)c1cn(C)cn1
i | CCCNC(=O)N1C[C@H]2[C@@H](c3ccccc31)[C@@H](CO)N2C(=O)Nc1ccccc1F
i | C[C@@H]1CN([C@@H](C)CO)C(=O)CCCn2nncc2CO[C@H]1CN(C)CC1CCCCC1
i | COc1cccc(-c2ccc3c(c2)[C@@H]2[C@@H](CCN2C(=O)c2ccc4c(c2)OCO4)[C@H](CO)N3C)c1
i | COCC(=O)Nc1ccc2c(c1)OC[C@@H](C)N(CCc1ccccc1)C[C@@H](C)[C@H](OC)CN(C)C2=O
i | O=C1CN(Cc2ccc(F)cc2)C[C@H]2[C@@H](c3ccc(-c4ccccc4)cc3)[C@@H](CO)N12
i | O=C(NCc1ccc(F)cc1)[C@@H]1[C@@H](CO)[C@@H]2Cn3c(cccc3=O)[C@H]1N2CC1CCCC1
i | O=C(Nc1ccccc1)N1CCCCN2[C@@H](CO)[C@@H](c3ccc(-c4ccccc4F)cc3)[C@@H]2C1
i | O=C(NCC[C@H]1CC[C@H](NC(=O)C2CCC2)[C@H](CO)O1)c1ccc(F)cc1
i | Cc1ccc(S(=O)(=O)N[C@@H]2CC[C@@H](CC(=O)NC3CCCCC3)O[C@@H]2CO)cc1
i | Cc1ccc(S(=O)(=O)N(C)C[C@H]2Oc3ccc(NC(=O)Cc4cn(C)c5ccccc45)cc3C(=O)N([C@@H](C)CO)C[C@@H]2C)cc1
i | C[C@H](CO)N1C[C@H](C)[C@H](CN(C)CC2CCCC2)OCc2cn(nn2)CCCC1=O
i | COc1ccc(S(=O)(=O)N2CCC3(CC2)CN(Cc2ccncc2)[C@H](CO)c2[nH]c4cc(OC)ccc4c23)cc1
i | CCCNC(=O)C[C@H]1CC[C@H]2[C@H](COc3ccc(NC(=O)NCC)cc3C(=O)N2C)O1
i | O=C(C[C@@H]1CC[C@@H](NC(=O)C2CCC2)[C@H](CO)O1)Nc1nccs1
i | COc1cccc(C#Cc2cnc3c(c2)C(=O)N([C@@H](C)CO)C[C@@H](C)[C@H](CN(C)C(=O)C2CCCCC2)O3)c1
i | COc1ccc(NC(=O)Nc2cccc3c2O[C@@H](CN(C)Cc2ccc(C(F)(F)F)cc2)[C@H](C)CN([C@H](C)CO)C3=O)cc1
i | Cc1noc(C)c1NC(=O)N(C)C[C@@H]1Oc2c(NS(=O)(=O)c3cn(C)cn3)cccc2C(=O)N([C@H](C)CO)C[C@@H]1C
i | COc1ccc(CN(C)C[C@@H]2Oc3c(NS(=O)(=O)c4ccc(Cl)cc4)cccc3C(=O)N([C@H](C)CO)C[C@@H]2C)cc1
i | O=C(C[C@H]1C=C[C@@H](NC(=O)NC2CCCC2)[C@H](CO)O1)NCc1ccc(F)cc1
i | C[C@@H]1CN([C@@H](C)CO)C(=O)c2cc(NC(=O)Nc3ccc4c(c3)OCO4)ccc2O[C@@H](C)CCCCO[C@H]1CN(C)Cc1ccc2c(c1)OCO2
i | C/C=C/c1ccc2c(c1)O[C@H](CN(C)CC1CCCC1)[C@@H](C)CN([C@H](C)CO)S2(=O)=O
i | O=S(=O)(Cc1ccccc1)N1CCCCN2[C@@H](CO)[C@H](c3ccc(-c4ccccc4)cc3)[C@@H]2C1
i | CC=Cc1ccc2n(c1=O)C[C@@H]1[C@@H](CO)[C@H](C(=O)N[C@@H](C)c3ccccc3)[C@H]2N1Cc1cccnc1 (mixture of isomers)
i | C[C@@H]1CN([C@@H](C)CO)C(=O)c2cccc(N(C)C)c2O[C@@H]1CN(C)S(=O)(=O)c1ccc(F)cc1
i | COCCNC(=O)C[C@@H]1CC[C@H]2[C@@H](COc3ccc(NS(=O)(=O)c4ccc(Cl)cc4)cc3C(=O)N2C)O1
i | C[C@H](O)C#Cc1cnc2c(c1)C(=O)N([C@H](C)CO)C[C@H](C)[C@H](CN(C)Cc1ccc(-c3ccccc3)cc1)O2
i | COc1ccc(-c2ccc3c(c2)[C@H]2[C@H](CCN2Cc2cncnc2)[C@H](CO)N3)cc1
i | C[C@H]1CN([C@@H](C)CO)C(=O)c2cc(NC(=O)Cn3cnnn3)ccc2O[C@@H]1CN(C)S(C)(=O)=O
i | O=C(C[C@H]1C=C[C@H](NC(=O)NC2CCCC2)[C@@H](CO)O1)NCc1ccc(F)cc1
i | C[C@@H](O)C#Cc1ccc([C@H]2[C@@H](CO)N3CCCCN(C(=O)c4ccc5c(c4)OCO5)C[C@@H]23)cc1
i | Cc1noc(C)c1S(=O)(=O)N(C)C[C@@H]1OCCCC[C@@H](C)Oc2ccc(NC(=O)CCCN(C)C)cc2C(=O)N([C@H](C)CO)C[C@@H]1C
i | CN(C)C(=O)c1cccc(-c2ccc([C@@H]3[C@@H](CO)N4CCCCN(C(=O)C5CCC5)C[C@H]34)cc2)c1
i | C[C@H](NC(=O)C[C@H]1CC[C@H](NC(=O)c2cccnc2)[C@@H](CO)O1)c1ccccc1

The listing continues.
FGF22 binding | molecule
i | N#C[C@@H]1[C@H](c2ccc(C3=CCCCC3)cc2)[C@@H](CO)N1C(=O)c1ccccn1
i | CC(C)c1cn(CC[C@@H]2CC[C@H](NS(=O)(=O)c3ccc(Cl)cc3)[C@@H](CO)O2)nn1
i | C[C@@H]1CN([C@H](C)CO)S(=O)(=O)c2ccc(C#Cc3ccccc3)cc2O[C@H]1CN(C)S(=O)(=O)c1ccccc1F
i | COCC(=O)N1C[C@H]2[C@@H](c3ccccc31)[C@H](CO)N2C(=O)C1CC1
i | CC(C)NC(=O)Nc1ccc2c(c1)C(=O)N([C@@H](C)CO)C[C@@H](C)[C@@H](CN(C)C(=O)NC(C)C)OCCCC[C@H](C)O2
i | CCCC(=O)Nc1ccc2c(c1)OC[C@@H](C)N(C(=O)CC1CC1)C[C@@H](C)[C@H](OC)CN(C)C2=O
i | CNC[C@H]1Oc2ccc(NC(=O)Cn3cnnn3)cc2CC(=O)N([C@@H](C)CO)C[C@@H]1C
i | CC(=O)N1[C@H](CO)[C@@H](c2ccc(-c3ccc(C#N)cc3)cc2)C12CN(C(=O)C1CC1)C2
i | CS(=O)(=O)N1C[C@@H](O)COC[C@@H]2O[C@H](CC(=O)NCc3ccccc3)CC[C@H]21
i | C[C@@H]1CN([C@H](C)CO)C(=O)c2cccc(NC(=O)c3cnccn3)c2O[C@@H]1CN(C)Cc1ccc(-c2ccccc2)cc1
i | O=C(NCC1CCCCC1)[C@H]1[C@H](CO)[C@H]2Cn3c(cccc3=O)[C@H]2N1Cc1ccccn1
i | CNC(=O)C[C@H]1CC[C@@H]2[C@H](COC[C@@H](O)CN2C(=O)Nc2ccc3c(c2)OCO3)O1
i | C[C@@H]1CN([C@H](C)CO)C(=O)c2cccc(NC(=O)CCCCCC(=O)Nc3ccccc3N)c2O[C@H]1CN(C)C(=O)Nc1ccc(F)cc1
i | C[C@H](CO)N1C[C@H](C)[C@@H](CN(C)C(=O)Nc2ccccc2)Oc2c(NC(=O)Nc3ccc(F)cc3)cccc2C1=O
i | COCC(=O)N1C[C@@H](C)[C@@H](OC)CN(C)C(=O)c2ccc(NC(=O)c3ccccc3)cc2OC[C@H]1C
i | CCNC(=O)C[C@@H]1CC[C@@H]2[C@@H](COc3ccc(NC(=O)Cc4cccs4)cc3C(=O)N2C)O1
i | COCC(=O)Nc1ccc2c(c1)C(=O)N(C)[C@@H]1CC[C@@H](CC(=O)NCCc3ccncc3)O[C@H]1CO2
i | C[C@H]1CN([C@@H](C)CO)C(=O)c2cc(/C=C/c3ccccc3)cnc2O[C@@H]1CN(C)C(=O)c1cccnc1
i | C[C@@H]1CN([C@@H](C)CO)C(=O)c2cc(NS(=O)(=O)c3ccccc3)ccc2O[C@H]1CN(C)S(=O)(=O)c1cccs1
i | O=C(C[C@H]1CC[C@H]2[C@@H](COC[C@@H](O)CN2S(=O)(=O)c2cccc(Cl)c2)O1)NC1CCC1
i | O=C(N[C@@H]1CC[C@H](CCn2cc(-c3ccc(F)cc3)nn2)O[C@H]1CO)c1cnccn1

Not all compounds are listed; count on the stated rates, not on these rows.
